NPYLR7 ag: mosquito NPYLR7 agonism; 270,000 compounds, 0.15% hits; activation, % at 10 µM; HEK293T NPYLR7/Galpha15, GCaMP6s calcium fluorescence; AID 1259423; in the data active = activation above about 40%;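 also: 0% = vehicle and 100% = reference agonist at the receptor; some compounds past the cut are filed as inactive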
NPYLR7 ag max-min: also measured in NPYLR7 ag; calls as there; activation, %; measured here: Max-Min RFU normalised activation; some inactives read as strong as hits;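 span of the calcium signal over five minutes; 0% = vehicle and 100% = native peptide agonist; compound fluorescence can raise it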
* = called active by the depositor; & = joins results of further samples. Some of the compounds tested. The share of hits here may be higher or lower than overall.

SMILES	NPYLR7 ag	NPYLR7 ag max-min
Cc1ccc(CN2CCN(Cc3c(CO)cnc(C)c3O)CC2=O)cc1	2.6	1.0
O=C(/C(F)=C/c1ccccc1)N1CCCC(Nc2ccccc2)C1 (stereo not drawn)	3.9	0.5
CC1CCCC(NC(=O)CCC(=O)N2CCc3ccccc3C2)C1 (stereo not drawn)	-0.6	-6.3
COc1ccccc1/C=C/C1=NC(=C\c2ccccc2F)/C(=O)O1	-3.5	-7.2
CC(C(=O)Nc1ccc(CCC(F)(F)F)cc1)N1C(=O)NC2(CCCC2)C1=O (stereo not drawn)	3.9	1.7
Cn1ncc(Oc2ccc(F)cc2F)c(Nc2cccc(C(=O)NCC3CCCO3)c2)c1=O (stereo not drawn)	-1.4	8.8
COc1cccc(-c2cc(C(=O)NC(C)C)n3nc(C(C)(C)C)cc3n2)c1	12.9	14.5
Cc1ccc(CNC(=O)CCC2CCCN(C(=O)c3sccc3C)C2)o1 (stereo not drawn)	6.5	8.9
Cc1cc2c(o1)CC(C)(C)CC2NC(=O)CCn1c(C)csc1=O (stereo not drawn)	-5.1	-4.6
O=S(=O)(c1ccc(Cl)s1)N(Cc1ccco1)Cc1ccco1	3.3	1.4
CN1C(=O)CON=C1c1cccc2ccccc12	5.9	-0.6
COc1cc(OC)cc(N2CCN(C(=O)C3CCC3)C(C)C2=O)c1 (stereo not drawn)	5.8	3.3
O=C(c1cccs1)N(CC(=O)N1CCc2sccc2C1COc1ccc(Cl)cc1)C1CC1 (stereo not drawn)	15.0	12.8
COc1ccc(C(=O)CSc2nccn(-c3ccc(OC)cc3)c2=O)cc1	-3.5	-4.5
CC(NC(=O)C12CC3CC(CC(C3)C1)C2)C(=O)NNC(=O)CCC1CCCCC1 (stereo not drawn)	2.3	0.4
Cc1noc(-c2ccc(OC(F)(F)F)cc2)c1C(=O)NCc1ccsc1	0.0	0.3
COc1ccc(C2(O)CN(c3cc(C)ccc3C)C3=[N+]2CCCC3)cc1 (stereo not drawn)	-1.4	-5.1
CN(Cc1nc2c(s1)CCCC2)C(=O)C1CCC(=O)N(CCc2ccccn2)C1 (stereo not drawn)	-0.3	-4.4
CCOC(=O)c1nnn(-c2ccc(OCC)cc2)c1C(=O)OCC	5.7	7.8
CN(C)C(=O)c1ccc(-c2ccc3c(c2)OCCO3)o1	7.9	2.8
O=C(NC1CCc2ccccc21)c1cccc(N2CCCC2=O)c1 (stereo not drawn)	3.6	-3.2
CCCCCC(=O)N(CCOC)CC(=O)N(Cc1cccn1Cc1cccc(OC)c1)C(C)(C)C	-1.8	1.1
O=[N+]([O-])c1ccc(Sc2cccc3cccnc23)c([N+](=O)[O-])c1	2.6	-0.2
O=C(NCc1ccc(OC(F)(F)F)cc1)c1cncn1-c1cccc(-c2cccc3c2sc2ccccc23)c1	9.3	-0.3
COc1cccc2c1OCCCN(C(=O)c1nc3ncccn3n1)C2	9.8	-1.9

Part of the list above in order of length of the SMILES, ascending.
SMILES	NPYLR7 ag	NPYLR7 ag max-min
CCOC(=O)c1nnn(-c2ccc(OCC)cc2)c1C(=O)OCC	5.7	7.8
O=C(/C(F)=C/c1ccccc1)N1CCCC(Nc2ccccc2)C1 (stereo not drawn)	3.9	0.5
COc1ccccc1/C=C/C1=NC(=C\c2ccccc2F)/C(=O)O1	-3.5	-7.2
Cc1noc(-c2ccc(OC(F)(F)F)cc2)c1C(=O)NCc1ccsc1	0.0	0.3

Remaining list, next part.
SMILES	NPYLR7 ag	NPYLR7 ag max-min
CCn1c(=NC(=O)c2nc3ccccc3s2)sc2cccc(OC)c21	0.4	-2.6
CC(=O)N(CN1C(=O)c2ccc(Br)cc2C1=O)c1ccc(OCc2ccccc2)cc1	3.8	6.5
CCCNC(=O)N(Cc1nccn1Cc1ccc(OC)cc1)CC1CCCO1 (stereo not drawn)	13.2	8.9
CCSC(C(=O)NCC1(N2CCCCC2)CCOCC1)C(C)C (stereo not drawn)	-5.2	-5.7
C[C@@H]1CCC2C(C(=O)[C@H](C)CCC1=O)C2(C)C (stereo partly drawn)	-6.7	-9.7
COCCNC(=O)c1nn(-c2ccc(OC)c(OC)c2)c(=O)n(Cc2cccc(F)c2)c1=O	18.0	18.9
COc1ccccc1C(c1c(NC(C)=O)sc2c1CCCC2)N1CCN(CCO)CC1 (stereo not drawn)	2.1	2.5
CC(C)c1cc(NC(=O)CN2CCCC2c2cccs2)on1 (stereo not drawn)	6.7	4.3
Cc1cccc(C(=O)NCCc2cc3c(C)ccc(C)c3[nH]c2=O)c1	-1.2	29.3
c1n[nH]c2c1C(c1nc(C3CC3)no1)CCC2 (stereo not drawn)	15.2	9.5
Fc1ccc(C2CC(c3cccc(Br)c3)=Nc3ncnn32)cc1 (stereo not drawn)	18.1	16.4
Cc1nn(C2CCS(=O)(=O)C2)c2nc(-c3ccccc3)cc(C(=O)N3CCC(C)CC3)c12 (stereo not drawn)	7.1	15.8
Cn1nc(C(C)(C)C)cc1NC(=O)C1(C)CCN1C(=O)CCc1ccccc1 (stereo not drawn)	-0.5	-1.0
CCCCc1ccc(-c2ccc(-n3cncc3C(=O)NC3CC(C)CC(C)(C)C3)cc2)cc1 (stereo not drawn)	7.9	4.1
Cc1ccccc1Nc1nnc(C(O)C2CCCCC2)s1 (stereo not drawn)	7.9	5.2
CCN(CC(=O)NCc1cccs1)C(=O)c1ccc(=O)n(Cc2ccccc2)n1	2.4	2.5
O=S(=O)(NC1CCCOc2ccc(F)cc21)N1CCCCCC1 (stereo not drawn)	-23.2	-21.9
O=C(Nc1nn2cnnc2s1)c1ccc(=O)[nH]n1	-1.9	-3.5
COc1cccc(CN2Cc3ccccc3N(CC(=O)NCC3(N4CCOCC4)CCCC3)C2=O)c1	5.5	2.9
CCOc1cc(S(=O)(=O)NCc2ccco2)ccc1F	0.0	3.3
O=S(=O)(c1ccccc1)N1CCN(Cc2ccccc2)CC1	1.7	-1.0
COCCCN(CC(=O)N(CCc1c[nH]c2ccccc12)Cc1ccc(C(F)(F)F)cc1)C(=O)C1C[C@H]1c1ccccc1 (stereo partly drawn)	-11.8	-16.6
CCc1ccc2nc(N(CCN(C)C)C(=O)CCS(=O)(=O)c3ccc(C)cc3)sc2c1	-4.2	-5.5
CN(Cc1nc2ccsc2c(=O)[nH]1)C(=O)C(c1ccc(F)cc1)N(C)C (stereo not drawn)	14.9	6.4
O=C1c2cccc([N+](=O)[O-])c2C(=O)N1CNc1ccc(Cl)c(Cl)c1	-2.5	-6.7
Next part:
SMILES	NPYLR7 ag	NPYLR7 ag max-min
COC(=O)C(N)CS (stereo not drawn)	-3.8&-2.8	-13.2&-5.6
COCCN(Cc1cccs1)CC(O)COc1ccc(OC)cc1 (stereo not drawn)	-8.9	1.3
COc1ccc(CCNC(=O)c2ccc(Cl)cc2NS(=O)(=O)c2cc(OC)ccc2OC)cc1	5.8	7.5
Cc1ccsc1[C@@H]1CCN(C(=O)CCc2nc3ccccc3[nH]2)C[C@H]1O	-4.6	-5.9
CCOC(=O)C1CCCN(C(=O)c2coc(CN(Cc3ccc(F)cc3)Cc3cccc(OC)c3)n2)C1 (stereo not drawn)	-2.5	24.8
CN(C)c1nc(C(=O)OCCO)nc(N(C)C)n1	-0.4	-4.2
CCC(C(=O)N(Cc1ccc(OC)cc1)Cc1nc2cc(C)ccc2o1)c1ccccc1 (stereo not drawn)	21.1	26.0
CC(=O)c1sc(NC(=O)c2ccc(Cl)cc2)nc1C	-3.3	-12.0
Cc1cccc(-c2cc(N)n(-c3ccc(C(=O)NC(c4ccccc4)c4ccc(Cl)cc4)cc3)n2)c1 (stereo not drawn)	-7.3	-13.4
CC(=O)N1CCN(C(=O)CC2CSc3nc(C(C)C)cc(=O)n32)CC1 (stereo not drawn)	-0.2	-0.7
O=[N+]([O-])c1cccc(C=Nn2cnc3ccccc32)c1	-3.9	-6.5
O=C(CCC1NC(=O)c2ccccc2NC1=O)Nc1cccnc1 (stereo not drawn)	8.9	9.5
O=C(CCCCC1CCSS1)N1CCCC1c1nnc2c(C(F)(F)F)cccn12 (stereo not drawn)	-5.8	-11.2
COc1cccc(S(=O)(=O)NCCNc2cc(-n3ccnc3C)ncn2)c1	-13.6	-20.9
O=c1c(O)c(-c2ccc(O)c(O)c2)oc2cc(O)cc(O)c12	7.6&4.5&13.5	3.2&-48.0&15.4
O=C1CCC(=O)N1OCCOc1ccc(Cc2ccccc2)cc1	9.3	7.4
Clc1ccc(-c2nc3ccc(Br)cn3c2NC2CCCCC2)cc1	3.4&2.3	8.7&5.6
O=C(NC1CCCOc2ccc(F)cc21)c1cccc2c1OCCO2 (stereo not drawn)	2.5	-2.2
CCOC(=O)c1c(NC(=O)c2snnc2C)c(-c2ccc3c(c2)OCO3)cn1C	2.6	-2.0
COc1ccccc1CN1CCN(S(=O)(=O)c2ccc(C#N)cc2)CC1	-5.7	-4.5
OCc1cnn(-c2ccccc2)c1	-0.5	7.8
Cc1cc(=O)oc2cc(OCC(=O)C(C)(C)C)ccc12	14.9	14.8
COc1ccc(C(=O)N2CCC(C(NC(=O)c3ccc(F)cc3)C(=O)Nc3ccccc3)CC2)cc1 (stereo not drawn)	7.6	9.1
CN(C)CCCCSC(=N)N	3.7	2.2
Cc1cc(C)c2[nH]c(O)c(N=NC(=S)NCC3CCCO3)c2c1 (stereo not drawn)	1.4	8.6
Further records follow.
SMILES	NPYLR7 ag	NPYLR7 ag max-min
CCn1c(-c2ccccc2)cnc1SC(C)C(=O)NC(N)=O (stereo not drawn)	6.7	0.1
CC(C)N1C(=O)COCc2cc(-c3cccc(C(N)=O)c3)ccc21	7.6	6.5
CCCn1ccnc1SCC(=O)NN1C(=O)NC2(CCCCC2)C1=O	-0.5	6.8
CCOC(=O)c1sc(N2C(=O)C(O)=C(C(=O)c3ccc(C)o3)C2c2ccc(OCC)cc2)nc1C (stereo not drawn)	-1.7	-2.7
CCNC(=S)N(Cc1c(-c2ccc(F)cc2)noc1N1CCN(C)CC1)CC(C)C	5.0	2.6
O=C(c1cccnc1Oc1cccc([N+](=O)[O-])c1)N1CCC(O)(Cc2ccccc2)CC1	19.1	4.5
Cc1ccsc1CCNC(=O)CC1C(=O)N(C)C(=O)N1C (stereo not drawn)	25.5	13.4
C=CCNC(=O)N1CCN(C(C(=O)N(C)CC)C2CCCC2)CC1 (stereo not drawn)	4.2	9.1
COc1ccccc1C(=O)N1CCCN(c2nc(Cc3ccccc3)nc3onc(-c4ccccc4)c23)CC1	10.2	-1.3
CC1CCCN(C(C)C(=O)N(c2nccs2)C2CCCCC2)C1 (stereo not drawn)	1.9	0.8
CC(C)(C)c1ncsc1C(=O)NCCNc1ccccn1	2.2	2.4
CN(C)c1ncnc2c1CCN(C(=O)C(O)c1ccc(C(F)(F)F)cc1)C2 (stereo not drawn)	7.2	3.8
Cc1ccc(-c2nc(CC(=O)NCC(F)(F)F)cs2)o1	0.0	-1.4
Cc1nc2n(n1)C(=O)C(C(c1ccccc1)N1CCN(Cc3ccccc3)CC1)S2 (stereo not drawn)	3.6	1.2
Cc1ccc2c(c1)CCN1C(=O)CN(C(=S)Nc3ccc(-c4cnco4)cc3)CC21 (stereo not drawn)	28.1	11.5
CC(C)(N)c1c(Cl)cccc1Cl	13.0	4.2
CCNC(=O)N(Cc1ccco1)Cc1c(-c2ccccc2)noc1N1CCCCC1	6.0	11.6
Cc1cccc(-c2noc(CN(C)C(=O)CN3CCCN(C)CC3)n2)c1	2.8	5.6
COC(=O)c1csc(CN(C(=O)c2cccc(F)c2)C2CC2)n1	13.8	17.3
COc1cccc(-c2cnc(-c3ccncc3)nc2C2CCN(C(=O)/C=C/c3cccc(F)c3)CC2)c1	-6.1	-11.5
O=C(O)C[C@@H]1CCN(C(=O)Nc2ccc(OC(F)(F)F)cc2)C[C@@H]1CCN1C[C@@H]2C[C@H](C1)c1cccc(=O)n1C2	-6.3	-15.1
C=CCN(CC=C)C(=O)CSc1nnc(Cc2ccccc2)n1-c1cccc(C(F)(F)F)c1	-0.5	3.9
O=C(NC1CCN(Cn2nc(Nc3ccccc3F)sc2=S)CC1)c1ccccc1	3.6	-2.1
COC(=O)C1=C(O)/C(=C\c2ccccn2)SC1=Nc1ccc(C(F)(F)F)cc1	-1.8	6.0
CC1CCc2[nH]c3c(C(=O)NCC4CN(C)CCO4)cccc3c2C1 (stereo not drawn)	10.4	8.3

Some of the entries so far, with each value named.
O=C(NC1CCN(Cn2nc(Nc3ccccc3F)sc2=S)CC1)c1ccccc1
  NPYLR7 ag: 3.6
  NPYLR7 ag max-min: -2.1

CC(C)N1C(=O)COCc2cc(-c3cccc(C(N)=O)c3)ccc21
  NPYLR7 ag: 7.6
  NPYLR7 ag max-min: 6.5

COc1cccc(-c2cnc(-c3ccncc3)nc2C2CCN(C(=O)/C=C/c3cccc(F)c3)CC2)c1
  NPYLR7 ag: -6.1
  NPYLR7 ag max-min: -11.5

CCCn1ccnc1SCC(=O)NN1C(=O)NC2(CCCCC2)C1=O
  NPYLR7 ag: -0.5
  NPYLR7 ag max-min: 6.8

Following part
SMILES	NPYLR7 ag	NPYLR7 ag max-min
O=C1CC(N2C(=O)C3CC=CCC3C2=O)C2COC1O2 (stereo not drawn)	7.9	5.9
CCCOc1cccc(C(=O)Nc2cc(-c3nc4ccccc4o3)ccc2C)c1	-1.8	-1.3
COCC1CCCN(C(=O)c2ccc(-c3ccccc3CN(C)C)nc2)C1 (stereo not drawn)	4.0	3.3
CCCn1c(N)c(C(=O)CSc2nncs2)c(=O)[nH]c1=O	1.6	-0.2
c1ccc2c(N3CCN(C4CCNCC4)CC3)nsc2c1	2.7	1.6
Nc1nc(SCC(=O)N2CCCCCC2)[nH]c(=O)c1NC(=O)c1ccc(C(F)(F)F)cc1	0.3	-1.2
COc1ccc(S(=O)(=O)CCCC(=O)N=c2sc3cc(C)cc(C)c3n2C)cc1	-0.3	-0.7
O=C(Nc1ccc2c(c1)OCCCO2)c1cccnc1N1CCCC1	6.6	4.8
CC(C)(C)c1cc(C2CC(=O)Nc3cc(N4CCNC4=O)ccc32)[nH]n1 (stereo not drawn)	-7.5	-11.3
Cc1cccc(-c2noc(N3CCOCC3)c2CN(CC2CCCO2)C(=O)c2ccco2)c1 (stereo not drawn)	-1.0	7.2
O=C(Nc1ccc(SC(F)F)cc1)C1=CC=CN2CCS(=O)(=O)N=C12	-0.2	-2.1

Assay outcomes deposited in PubChem BioAssay by Fisher Drug Discovery Resource Center.
